MgrA-DNA mod = S. aureus MgrA activity modulators, primary screen, biochemical, S. aureus Newman, fluorescence polarization; 84,000 compounds, 0.13% hits; AID 602314, 2012; inhibition, %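 (about 10 µg/mL by stock and volumes)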; MgrA-DNA binding;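 active means above 50% in either of two replicates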;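 further: 0% = protein plus DNA without compound and 100% = DNA alone without protein; higher means less MgrA bound to DNA so lower polarization; one replicate is shown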
S aureus helic = inhibitors of S. aureus replicative helicase, primary screen, biochemical, fluorescence unwinding readout; purified S. aureus helicase, fluorescence unwinding assay; about half of the hits fall short of the stated cut; inhibition, %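 (tested at about 80 µM)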; 120,000 compounds, 0.05% hits; AID 485395, 2010;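 active means both duplicates at 50% or more, or one of them with a favoured structure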;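 further: 0% = mean of negative control wells and 100% = mean of positive control wells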
The depositor's hits bear a star; / = no result given. These rows are one share of the data; rates above refer to the full screens.

SMILES	MgrA-DNA mod	S aureus helic
COc1nc2c(C)cccc2cc1-c1noc(-c2ccc(C)cc2)n1	-1.0	3.0
CCOC(=O)COc1ccc(S(=O)(=O)N2CCN(Cc3ccc4c(c3)OCO4)CC2)cc1	-0.6	-1.0
c1ccc2c(c1)CNc1ccccc1C2	1.9	16.0
CCOC(=O)N1CCN(C(=O)COC(=O)c2ccc(=O)n(Cc3ccccc3)n2)CC1	/	-10.0
CCOC(=O)/C=c1\s/c(=C\c2ccsc2)c(=O)n1CC(=O)c1cc(C)n(Cc2ccco2)c1C	/	-20.0
COc1ccc(-n2c(-c3ccco3)n[nH]c2=S)cc1	0.1	/
CCOc1ccccc1NC(=O)/C=C/C(N)=O	/	17.0
OCCNCc1[nH]c2ccccc2c1Cl	-0.8	-5.0
Cn1cnc2c(cnn2-c2ccccc2)c1=O	-8.9	/
O=C(Nc1ccc2c(c1)OCCO2)c1ccccc1CSc1nc2ccccc2o1	/	-15.0
COc1ccccc1COCC(O)CN1CCC(=O)CC1 (configuration not stated)	/	-17.0
CCCCCCCCCCCCC/C=C/[C@@H](O)[C@H](CO)NCCCCCCCC	7.3	/
O=C(NC(=O)C(F)(F)F)NC1CCCC1	2.1	11.0
C=CCOC(=O)Nc1ccc(C(O)(C(=O)OCC)C(F)(F)F)cc1C (configuration not stated)	1.1	-6.0
Cn1ncc(-c2nc(-c3ccc(Cl)cc3)cs2)c1N	-1.0	/
CC(NC(=O)c1ccco1)C(=O)OCc1cccc(C(F)(F)F)c1 (configuration not stated)	/	10.0
COc1cccc(CNC(=O)c2cnc(SC)nc2C)c1	/	-50.0
CCOC(=O)c1cc2ccc(O)cc2oc1=O	1.6	2.0
O=C(NC(=Nc1ccccc1)N1CCOCC1)Nc1ccccc1	/	3.0
O=C(O)CCC1CCC(=O)N1 (configuration not stated)	-12.3	11.0
COc1cc(C(c2nnnn2Cc2ccco2)N2CCN(C3CCCC3)CC2)cc(OC)c1OC (configuration not stated)	1.1	1.0
O=C(O)c1ccccc1C(=O)Nc1nccs1	/	-10.0
c1ccc2c(c1)nc1n2CN(C2CCCCC2)CN1	-1.0	3.0
O=S(=O)(c1ccc2c(c1)OCCO2)N1CCN(c2ccnc3cc(Cl)ccc23)CC1	/	-4.0
Cc1ccc2c(c1)-c1onc(C(=O)N(Cc3ccco3)CC3CCCO3)c1CO2 (configuration not stated)	/	-18.0

The results go on:
SMILES	MgrA-DNA mod	S aureus helic
CCOC(=O)/C(C#N)=C/c1cn(Cc2ccccc2)c2ccccc12	/	-21.0
CCOc1ccc(NC(=O)CC2C(=O)N(C)C(=S)N2CCc2ccccc2)cc1 (configuration not stated)	2.9	14.0
CCN(CCCNc1nc(=S)[nH]c2ccccc12)c1ccccc1	-0.8	9.0
CCCCn1c(=O)cc(N)[nH]c1=S	-0.8	/
CCn1c(=O)cc(OCC(=O)NCCCN2CCOCC2)c2ccccc21	-0.5	18.0
COc1ccc(-c2cc(CCCC(=O)NCCc3cccs3)no2)cc1	/	-12.0
O=C(NCCCN1CCC(Cc2ccccc2)CC1)c1nnc(Cc2ccc3c(c2)OCO3)o1	/	10.0
N#COc1ccc(Oc2ccc(OC#N)cc2)cc1	-31.1	26.0
O=C(/C=C/c1cccs1)NCC1CCN(C(=O)/C=C/c2cccs2)CC1	1.6	8.0
CCOC(=O)C1CCN(C(=O)COC(=O)c2ccccc2OCC)CC1	/	-2.0
CCC1CC(C)(C)CCN1C(=O)c1cc(=O)[nH]c(=O)[nH]1 (configuration not stated)	/	5.0
CC(=O)NC1=NC(=O)/C(=C/c2ccccc2)S1	0.6	5.0
COc1ccc(CC(=O)Nc2nccs2)cc1S(=O)(=O)N1CCOCC1	/	12.0
CC(=O)Nc1ccc(OC(=O)CC2SC(=O)NC2=O)cc1 (configuration not stated)	-2.9	/
O=C1CC(C(=O)N(Cc2ccco2)Cc2cccs2)CN1Cc1ccccc1 (configuration not stated)	/	-2.0
O=C(CSc1cccc[n+]1[O-])Nc1ccccc1OC(F)F	/	5.0
Clc1ccc(N=Cc2c[nH]c3ccccc23)cc1Cl	-3.0	4.0
CCOC(=O)CCc1c(C)nc(SCc2ccc(C(=O)O)cc2)c(C#N)c1C	/	4.0
COc1c(N)cc(Oc2cccc(C(F)(F)F)c2)c2nc(C)cc(C)c12	-6.0	-7.0
O=C(O)C(Cc1ccccc1)C(=O)O	/	-8.0
CSc1nc2scc(-c3cccs3)c2c(=O)n1CC(C)C	/	15.0
O=C(CSc1ncn[nH]1)c1ccccc1	/	-17.0
CCO/C=C1\C(=O)C(C)(C)Oc2ccc3ccc(=O)oc3c21	/	-1.0
O=C(NCCN1CCCCC1)Nc1cccc2ccccc12	0.8	-14.0
Cc1cc(=O)oc2cc(OCC(=O)OCc3nnc(-c4ccccc4)o3)ccc12	/	-5.0

Later entries:
SMILES	MgrA-DNA mod	S aureus helic
Cc1cc(-n2cnc(-c3cnoc3C)n2)no1	-1.5	/
CCCCn1c(O)c(Nc2ccc3c(c2)=NC(=O)N=3)c2ccccc21	/	-5.0
O=C(CCNc1n[nH]c(=O)[nH]c1=O)N/N=C/c1ccccn1	/	30.0
O=C(O)c1cc(C(=O)O)n(Cc2ccccc2Cl)n1	-5.0	5.0
O=C(NC1CCCCC1)c1snc2ccc(Cl)cc12	1.8	9.0
O=C(O)CCNC(=S)Nc1cc(Cl)ccc1Cl	-1.4	/
Cc1ccccc1NC(=O)COc1coc(CN2CCN(Cc3ccccc3)CC2)cc1=O	/	2.0
Cc1cc(Cl)ccc1OCCCC(=O)NCc1ccncc1	/	15.0
O=C1OC(Nc2ccc(Cl)c(C(F)(F)F)c2)c2ccccc21 (configuration not stated)	/	-17.0
S=c1[nH]c(-c2ccccc2)c(-c2ccccc2)[nH]1	-2.5	5.0
CCCn1c(C)cc(C(=O)COC(=O)C2COc3ccccc3O2)c1C (configuration not stated)	/	0.0
O=C(O)CCCN1C(=O)/C(=C/c2c(N3CCN(Cc4ccccc4)CC3)nc3ccccn3c2=O)SC1=S	/	-87.0
CNc1ccccc1C(C)(C)c1cc(-c2cccc(OC)c2)no1	/	0.0
O=C(NCCN1CCN(c2cccc(Cl)c2)CC1)c1ccc(CS(=O)(=O)c2cccc(C(F)(F)F)c2)o1	/	17.0
Cc1ncc(CSc2ccc(Cl)cc2)c(CO)c1O	-1.2	/
Cc1ccc2oc(=O)c3cnn(CC(=O)NCCN4CCN(c5ccccc5F)CC4)c3c2c1	/	8.0
Cc1[nH]nc2nc(SCC(=O)NC3CCCCC3)n(-c3ccc(Br)cc3)c(=N)c12	/	7.0
COCCN1C(=O)C(=O)/C(=C(\O)c2ccc3c(c2)CC(C)O3)C1c1ccc(Cl)cc1 (configuration not stated)	/	-2.0
Cn1c(NNC(=O)c2ccccc2)cc(=O)n(C)c1=O	/	8.0
CC(=O)Oc1cc2c(C(=O)NCc3ccccn3)c(C)oc2c2ccccc12	/	0.0
Cc1nc(C(=O)O)nn1-c1ccc(Cl)cc1	/	-21.0
O=c1cc(O)c2c(=O)n(-c3ccccc3)c3ccccc3c2o1	-1.0	/
Cc1cc(NC(=O)CN(C)C2CCCCC2)nc2c1c(=O)oc1ccccc12	/	21.0
C=CCn1c(C)nnc1SC(C)C(=O)Nc1ccc(S(=O)(=O)NC(C)C)cc1 (configuration not stated)	/	7.0
COC(=O)c1ccc(S(=O)(=O)NCCc2ccccc2OC)n1C	/	-37.0

Following part
SMILES	MgrA-DNA mod	S aureus helic
CCCCNC(=O)Nc1nnc(Cc2ccccc2)s1	/	10.0
O=C(NCCc1cn2ccccc2n1)c1cccc(C(F)(F)F)c1	0.3	11.0
Cc1ccc(NC(=O)Nc2ccc3c(c2)C(=O)NC3=O)cc1	/	9.0
COC(=O)c1nn(-c2ccc3c(c2)CCN3C(C)=O)cc1O	/	5.0
CS(=O)(=O)N1CCC(C(=O)NC2CCCCC2)CC1	-2.6	14.0
COc1ccc(NC(=O)C2C3C=CC(O3)C2C(=O)NCc2cccnc2)cc1 (configuration not stated)	0.0	15.0
O=C(O)C1CCN1C1CCCCC1 (configuration not stated)	-0.4	7.0
CC(C(N)=O)n1cncn1 (configuration not stated)	3.5	/
COc1ccc(CN(C)C(=O)c2cccc(S(=O)(=O)N(C)C)c2)c(OC)c1	/	-10.0
O=C(O)c1ccc(N2Cc3ccc(Br)cc3C2)cc1	3.5	10.0
Cn1c(=O)c(=O)[nH]c2cnccc21	/	-1.0
CC(Sc1ncnc2c1oc1ccccc12)c1ccccc1 (configuration not stated)	/	-1.0
CC(C)c1cc(NC(=O)COC(=O)c2ccc3[nH]c4c(c3c2)CCCC4)on1	/	6.0
COc1ccc(C2CCCCCN2C(=O)Cn2c(C)csc2=O)cc1 (configuration not stated)	/	-7.0
Cc1ccc(C2C3=C(CC(C)(C)CC3=O)Nc3n[nH]c(C)c32)cc1 (configuration not stated)	-4.9	-12.0
COC(=O)c1c(NC(=O)C2SC(=NC3CCCCC3)C(C(N)=O)=C2N)sc2c1CCCC2 (configuration not stated)	/	-5.0
CCCSCC(=O)Nc1ccc(C)cc1C	-5.0	3.0
C=C1C2(C(=O)Nc3ccc(C(=O)OC)cc3)CCC(C2)C1(C)C (configuration not stated)	0.2	2.0
COc1ccc(SCC(=O)O)cc1OC	-0.6	/
O=C(Cn1cc(/C=C2\NC(=O)NC2=O)c2ccccc21)Nc1ccccc1	/	-26.0
CCNc1nc(NC(C)CC)nc(ON=C(C)C)n1 (configuration not stated)	1.4	-4.0
COc1ccc2nc(SCC(=O)O)[nH]c2c1	3.0	10.0
CC(NC(=O)COc1ccc(Cl)cc1)C(=O)O (configuration not stated)	0.8	9.0
Cc1ccc(-c2nn(-c3cccc(F)c3)c3c2cnc2cc(F)c(F)cc23)cc1	0.6	9.0
O=C(CN1CCC(NC(=O)c2ccccc2)CC1)Nc1ccccc1	/	-8.0

The closing 5 entries of the part above open the next one.
SMILES	MgrA-DNA mod	S aureus helic
CCNc1nc(NC(C)CC)nc(ON=C(C)C)n1 (configuration not stated)	1.4	-4.0
COc1ccc2nc(SCC(=O)O)[nH]c2c1	3.0	10.0
CC(NC(=O)COc1ccc(Cl)cc1)C(=O)O (configuration not stated)	0.8	9.0
Cc1ccc(-c2nn(-c3cccc(F)c3)c3c2cnc2cc(F)c(F)cc23)cc1	0.6	9.0
O=C(CN1CCC(NC(=O)c2ccccc2)CC1)Nc1ccccc1	/	-8.0
CCNS(=O)(=O)c1ccc2c3c(cccc13)C(=O)N2	/	19.0
CC(=O)Nc1ccc(S(=O)(=O)NCCSCc2ccco2)cc1	-2.7	/
CC1CN/C(=C/C(=O)/C=C/c2ccccc2)C(=O)N1 (configuration not stated)	2.1	5.0
CCOc1cc(/C=C2/SC(N)=NC2=O)ccc1OCc1ccc([N+](=O)[O-])cc1	0.9	/
Cc1cc(C)c(C(N)=O)c(SCC(=O)Nc2nccs2)n1	/	-26.0
O=C(Cn1cc(C(F)(F)F)ccc1=O)c1ccc[nH]1	/	-13.0
Cc1[nH]ncc1CNC(=O)c1[nH]nc2c1CCc1ccccc1-2	/	11.0
O=C1C2C3C=CC(CC3)C2C(=O)N1c1ccc(F)cc1 (configuration not stated)	-0.2	/
CCCc1nn2c(=O)cc(O)nc2s1	/	0.0
Cc1nc(NC(=O)C2CC3CCCC(C2)C3=O)sc1C (configuration not stated)	0.2	12.0
Cc1cc(C)n2nc3nc(N4CCC(C)CC4)nc(-c4ccccc4)c3c2n1	/	31.0
COc1ccc(C2CC(=O)N3CN(CCC(C)C)CSC3=C2C#N)cc1OC (configuration not stated)	-0.5	6.0
CC1=C/C(=N/NC(=O)c2ccc(CSc3nncn3C)cc2)CC(C)(C)C1	/	-7.0
O=C(O)c1nccnc1C(=O)N1CCc2ccccc2C1	-0.9	/
CCCc1c(Cc2c(F)cccc2Cl)c(=O)oc2cc(O)ccc12	2.2	/
COc1ccc(-c2ccc(S(=O)(=O)N3CCCCCC3)cc2)cc1	/	7.0
CCOc1ccc(S(=O)(=O)N2CCCC(C(=O)N3CCN(CC)CC3)C2)cc1Cl (configuration not stated)	2.8	6.0
O=C(NC1=NCCS1)c1cc2ccccc2o1	0.1	1.0
CCN(CC)S(=O)(=O)c1ccc(O)c(C(=O)OCC(=O)NC23CC4CC(CC(C4)C2)C3)c1	/	-4.0
OC(Cc1nc2ccccc2[nH]1)c1ccccc1Cl (configuration not stated)	/	4.0
Cc1ccc(-c2nn3c(C)nnc3s2)cc1N	/	5.0
N#C/C(N)=C(/C#N)N=Cc1cccc(Cl)c1	-2.5	/
COc1ccc(Nc2nc(-c3ccncc3)nc3ccccc23)cc1	/	11.0
CC(OC(=O)c1ccc(Br)o1)C(=O)NCC1CCCCC1 (configuration not stated)	/	20.0
COc1ccc(-c2csc(NC(=O)Cc3cccc4ccccc34)c2C(=O)O)cc1	-4.6	3.0

5 entries from above, with bars between the fields:
SMILES | MgrA-DNA mod | S aureus helic
CC1CN/C(=C/C(=O)/C=C/c2ccccc2)C(=O)N1 (configuration not stated) | 2.1 | 5.0
CCOc1ccc(S(=O)(=O)N2CCCC(C(=O)N3CCN(CC)CC3)C2)cc1Cl (configuration not stated) | 2.8 | 6.0
O=C(Cn1cc(C(F)(F)F)ccc1=O)c1ccc[nH]1 | / | -13.0
O=C(NC1=NCCS1)c1cc2ccccc2o1 | 0.1 | 1.0
CCNS(=O)(=O)c1ccc2c3c(cccc13)C(=O)N2 | / | 19.0

Next part
SMILES	MgrA-DNA mod	S aureus helic
Cc1cc(Nc2cccc(C(F)(F)F)c2)nc2ccc(NC(=O)c3ccccn3)cc12	-0.7	10.0
COc1ccc(CCNC(=O)Cn2c(-n3nc(C)cc3C)nc(C)c(C)c2=O)cc1OC	/	4.0
O=C(CN(Cc1ccco1)C(=O)Cn1cnnn1)Nc1ccc(Cl)c(C(F)(F)F)c1	/	-4.0
O=C(Nc1ccccc1C(=O)NCCCO)c1ccccc1	-0.6	3.0
COc1ccccc1-c1nnc(SCC(=O)Nc2cccc3nsnc23)n1-c1ccccc1	/	-5.0
CC1Cn2c(C(=O)NCc3ccccc3)cc3cccc(c32)S1 (configuration not stated)	/	29.0
CCOc1ccnc2sc(C(=O)c3cccnc3)c(N)c12	1.1	9.0
CC(=O)N(C)S(=O)(=O)c1ccc(C)cc1	-2.2	-12.0
